UUG fidelity – yeast start codon fidelity modulation; AID 602363; actives 0.13% (n = 350,000); activity score, % at 18.7 µM; S. cerevisiae UUG-firefly luciferase reporter, luminescence/redox ratio;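 active = replicate mean at a twofold rise or more, about +100% in these data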;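 note: firefly luciferase made from a UUG start codon reports start codon fidelity; reporter light over untreated wells divided by growth signal over untreated wells; some hits fall short of that in this replicate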
Rce1 inhib – blocks yeast Ras-converting enzyme. yeast membranes, quenched prenylated peptide cleavage fluorescence. calls only. actives 0.27% (n = 290,000). AID 2563;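 active = fall in fluorescence gain of 50% or more versus controls, with final raw signal at or below 3038400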;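 note: plate controls were neutral control wells for no effect and wells lacking membranes for full effect; tested at 10 µM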
Target sequence (Q03530 whole entry, looked up): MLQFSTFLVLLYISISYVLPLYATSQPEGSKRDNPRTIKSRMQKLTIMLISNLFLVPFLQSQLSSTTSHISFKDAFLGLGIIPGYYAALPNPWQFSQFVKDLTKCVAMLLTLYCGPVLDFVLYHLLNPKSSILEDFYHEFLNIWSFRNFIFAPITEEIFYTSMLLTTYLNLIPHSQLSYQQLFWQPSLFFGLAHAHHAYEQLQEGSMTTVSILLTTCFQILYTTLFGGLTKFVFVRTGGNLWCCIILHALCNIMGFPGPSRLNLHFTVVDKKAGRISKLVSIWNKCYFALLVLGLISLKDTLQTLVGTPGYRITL
MT1-MMP act inh – inhibitors of human MT1-MMP activation | P50281 | HT1080 RFP-PRO-GFP cells, GFP/RFP ratio fluorescence, overnight; percent of plate control window, DMSO zero | GFP/RFP ratio change, % at 20 µM | actives 0.061% (n = 360,000) | AID 651647;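 active = GFP/RFP ratio change of at least 30% with cell ATP level not reduced by more than half and red fluorescence within 50% of control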; note: strong numbers were not always called active
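Assay system: HT1080 RFP-PRO-GFP cells. Benchmarks: DMSO vehicle wells and RFP-L50D-GFP reporter cell wells. Times: overnight cell settling, then overnight compound exposure, 37 °C, 5% CO2. Compound: 20 µM single dose, 1% DMSO. Read-out basis: GFP/RFP fluorescence ratio.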
PABP polyA inh – PABP-poly(A) binding inhibition; inhibition, % at 35 µM; PABP-poly(A) RNA binding, fluorescence polarization; actives 1% (n = 290,000); P11940; AID 2014;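 active = 50% or more with normal probe brightness, or confirmed in later tests; about a fifth of its hits are not listed in these tables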;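 note: calls also rest on retests at 20 µM and on dose response follow-up; controls were probe without protein and protein plus probe with vehicle; some compounds called inactive have numbers as strong as hits; many hits fall short of the cut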
Target sequence (P11940 whole entry, looked up): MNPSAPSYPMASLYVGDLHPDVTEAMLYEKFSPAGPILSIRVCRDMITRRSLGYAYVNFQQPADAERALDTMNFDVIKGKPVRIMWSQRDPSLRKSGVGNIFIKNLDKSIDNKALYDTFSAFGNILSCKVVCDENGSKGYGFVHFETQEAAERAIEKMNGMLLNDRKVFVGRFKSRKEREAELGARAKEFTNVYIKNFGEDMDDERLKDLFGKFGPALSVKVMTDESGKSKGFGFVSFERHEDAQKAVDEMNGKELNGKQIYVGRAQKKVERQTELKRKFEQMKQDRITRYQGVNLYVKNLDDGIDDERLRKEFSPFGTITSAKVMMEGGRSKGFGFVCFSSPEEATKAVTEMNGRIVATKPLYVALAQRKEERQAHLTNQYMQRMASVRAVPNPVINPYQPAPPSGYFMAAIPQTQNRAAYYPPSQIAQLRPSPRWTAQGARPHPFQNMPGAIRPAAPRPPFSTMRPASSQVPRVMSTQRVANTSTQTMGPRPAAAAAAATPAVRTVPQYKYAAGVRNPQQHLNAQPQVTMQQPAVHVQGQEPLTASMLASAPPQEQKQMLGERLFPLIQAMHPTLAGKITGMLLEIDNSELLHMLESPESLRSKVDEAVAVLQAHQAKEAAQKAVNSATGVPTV
Env fusion inh – HIV envelope-mediated fusion inhibition; HeLa-JRFL Env/CEM21 cell fusion, luciferase; inhibition, % at 12.3 µM; actives 1.1% (n = 360,000); AID 651610;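 active = mean replicate inhibition score of at least 50 and every replicate individually at or above 50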;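 note: 0% = plate neutral controls and 100% = maraviroc near 300 nM; one replicate is shown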
CSC inhib – blocks cancer stem cells; actives 1.1% (n = 300,000); cancer stem cell-like cells viability, luminescence; inhibition, % at 7.5 µM; AID 2717;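 active = mean at 75% or more and at least half the replicates too; tested in HMLE shEcad cells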;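 note: 0% = median of negative and 100% = median of positive control wells; the first replicate is given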
eIF4H FP inh – inhibitors of RNA binding by human eIF4H. Q15056. eIF4H fluorescence polarization binding assay. inhibition, % at 35 µM. actives 0.94% (n = 290,000);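 active = 50% or more with normal probe brightness, or confirmed in later tests; about a fifth of its hits are not listed in these tables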;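 note: calls also rest on retests at 20 µM and on dose response follow-up; 0% = protein and probe with vehicle and 100% = probe without protein; strong numbers were not always called active; many hits fall short of the cut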
eIF4H FP inh retest – further read-out of eIF4H FP inh, marked with its call; inhibition, %; compound at 20 µM; confirmation average;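 mean of two retest wells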
PABP polyA inh retest – second read-out of PABP polyA inh, no call of its own (marks repeat the call); inhibition, %; compound at 20 µM; confirmation repeats;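 mean of two retest wells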
MT1-MMP act inh RFP – also measured in MT1-MMP act inh; calls as there; RFP signal change, %; measured here: RFP expression control read;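 0 = vehicle wells; hits needed this value within 50% of zero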
Starred values were filed as active, the others as inactive; i = inactive; / = not tested or not shown; & = joins results of further samples; [ ] = dose if it differs, or a comment. Not all compounds are listed; the hit share may differ from the screen's.

SMILES	UUG fidelity	Rce1 inhib	MT1-MMP act inh	MT1-MMP act inh RFP	PABP polyA inh	Env fusion inh	CSC inhib	eIF4H FP inh	others
O=C(COC(=O)c1ccc(Br)o1)NCc1cccs1	-13	i	-1	-1	4	-42	4	3
COc1ccc(C(=O)n2nc(C)c(Br)c2C)cc1OC	-12	i	8	4	-14	-16	-3	10
Cc1ccccc1CSCC(=O)Nc1ccccc1Br	3	i	-2	-3	12	7	-5	-2
COc1ccc(C)cc1S(=O)(=O)N(C)CC(=O)NC1CCCC1	/	i	7	-2	8	20	8	-6
Cc1ccc(NC(=O)CSc2nc(=O)n(CCCN3CCOCC3)c3c2CCCC3)cc1	-17	i	5	3	/	-27	-14	/
CCCCc1cc(=O)oc2cc(C)cc(OCC(=O)NCc3ccccn3)c12	-31	i	1	-1	-9	9	-19	-9
CCCc1ccc(OC(=O)c2cccs2)cc1	-8	i	1	1	1	-60	/	9
O=C(NCc1cccnc1)c1cc(C2CCCCN2S(=O)(=O)Cc2ccccc2)on1 (stereo unspecified)	-18	/	8	-1	/	-32	/	/
CCn1ccnc1CN(C)Cc1nc(-c2ccccc2)no1	1	i	0	5	10	6	-3	0
CCOc1ccc(S(=O)(=O)N2CCC(C(=O)NCC3CCCO3)CC2)cc1C (stereo unspecified)	-17	i	4	5	-2	2	-8	-10
FC(F)(F)Oc1ccc(NC(=S)NCCCN2CCOCC2)cc1	-19	i	-2	2	-2	-2	-11	-8
CCN(CCO)Cc1csc2ccc(C(C)(C)C)cc12	/	i	-1	1	-2	/	-9	-8
CC(=O)NC12CC3CC(C1)CC(C(=O)Nc1c(C)n(C)n(-c4ccccc4)c1=O)(C3)C2	0	i	0	3	-4	-2	/	-9
CN=C1SC(CC(=O)Nc2sc(C)c(C)c2C(=O)OC)C(=O)N1C (stereo unspecified)	9	i	8	-1	6	13	-12	1
C[C@@]12C(=O)N(c3ccc(F)cc3)C(=O)N1[C@@H]1c3ccccc3OC[C@@H]1[C@H]2c1ccccc1	-1	i	1	-3	-1	9	-5	-2
CCOC(=O)Cc1cc(=O)[nH]n(-c2ccccc2)c1=O	-16	/	-3	1	/	-15	/	/
O=C(c1ccccc1)N1N=C(c2ccccc2)CC1c1ccc2nccnc2c1 (stereo unspecified)	-11	i	-4	2	-5	/	/	-19
CCOC(=O)CNC(=O)CSc1nnc(-c2cccc(C)c2)n1-c1ccc(OC)cc1	1	i	1	0	-6	/	-7	2
O=S(=O)(Nc1ccc(C(O)(C(F)(F)F)C(F)(F)F)cc1)c1cccc2cccnc12	-4	/	0	-3	/	-8	/	/
CCCCC(=O)NC(NC(=O)CCCC)c1ccc(OCC(C)C)c(OC)c1	-3	i	4	6	-8	9	-4	11
Cc1ccc(N/C=C(\C#N)S(=O)(=O)c2ccccc2)cc1	-10	i	-3	-2	10	-11	-7	-8
Fc1ccc(Nc2ncnc3ccccc23)cc1	-6	i	1	-6	-8	8	16	-4
O=S(Cc1ccc(Br)cc1)Cc1nnc(SCc2c(Cl)cccc2Cl)n1-c1ccccc1 (stereo unspecified)	-5	i	-2	-19	6	/	/	7
O=C(NCCN1CCC(Cc2ccccc2)CC1)C1CCN(S(=O)(=O)N2CCC3(CC2)OCCO3)CC1	/	i	10	2	-9	-4	4	-2
COc1cc(C(=O)NCc2cccc3ccccc23)cc(Cl)c1OC	-8	i	-7	-3	-8	-128	-10	-7
COc1ccccc1N(C)S(=O)(=O)c1ccc(C(=O)NCCc2ccc(F)cc2)cc1	9	i	0	-2	-10	33	17	-10
COc1cc(CNS(=O)(=O)CCl)cc(OC)c1OC	-7	/	1	1	/	-34	-11	/
Cc1ccc(NC(=O)CSc2n[nH]c(-c3ccccn3)n2)cc1	-24	i	0	-6	-2	7	36	9
COc1ccc(C2c3c(c(C)c(C)oc3=O)Oc3c(C)c(C)oc(=O)c32)cc1	-16	/	-4	0	/	0	5	/
O=C(Nc1ccc(N2CCOCC2)c(F)c1)c1cccs1	-22	i	-1	0	-5	-47	-7	-3
COc1ccc(S(=O)(=O)n2ccnc2)c2cccnc12	-11	i	6	-4	6	/	-17	15
C=CCn1c(C)cc(C(=O)COC(=O)[C@@H](NC(=O)c2ccccc2Cl)C(C)C)c1C	/	i	4	2	-12	3	-3	-1
CCOc1ccc(C(C)=O)cc1COC(=O)c1ccccc1C(=O)N(C)Cc1ccccc1	-2	/	-6	-5	/	98*	/	/
CCN(CC)C(=O)c1[nH]cnc1C(=O)N[C@@H](Cc1ccccc1)C(=O)OC(C)(C)C	-11	i	-2	3	-3	-11	-5	6
CN(Cc1ccc(F)cc1)C(=O)c1cccc(OC2CCN(C3CCCC3)CC2)c1	-32	i	-5	0	-4	2	18	16
Cc1cc(C)cc(NC(=O)CN2CCCN(S(=O)(=O)c3ccc(Br)s3)CC2)c1	14	i	5	-4	-3	33	9	-9
C[C@@H]1CN([C@H](C)CO)C(=O)CCCn2nncc2CO[C@H]1CN(C)Cc1ccc(-c2ccccc2)cc1	-1	/	1	-2	/	12	/	/
CCOc1ccc(C(=O)N2CCN(CCc3ccccc3)CC2)cc1OCC	-15	i	-3	0	62	5	/	0	eIF4H FP inh retest=4;PABP polyA inh retest=7
COc1cc([C@H]2[C@@H]3CCCC[C@]3(O)CCN2CC(=O)Nc2ccc(C)cc2)ccc1O	-12	i	-2	0	-6	-72	-10	8
Cc1cc(C)n(-c2ccc(C(=O)Nc3cccc(S(=O)(=O)N(C)C)c3)cc2)n1	/	i	-2	-19	-16	27	-7	-22

Molecules above with a thiophene ring, fused or not (6):
SMILES	UUG fidelity	Rce1 inhib	MT1-MMP act inh	MT1-MMP act inh RFP	PABP polyA inh	Env fusion inh	CSC inhib	eIF4H FP inh	others
O=C(COC(=O)c1ccc(Br)o1)NCc1cccs1	-13	i	-1	-1	4	-42	4	3
CCCc1ccc(OC(=O)c2cccs2)cc1	-8	i	1	1	1	-60	/	9
CCN(CCO)Cc1csc2ccc(C(C)(C)C)cc12	/	i	-1	1	-2	/	-9	-8
CN=C1SC(CC(=O)Nc2sc(C)c(C)c2C(=O)OC)C(=O)N1C (stereo unspecified)	9	i	8	-1	6	13	-12	1
O=C(Nc1ccc(N2CCOCC2)c(F)c1)c1cccs1	-22	i	-1	0	-5	-47	-7	-3
Cc1cc(C)cc(NC(=O)CN2CCCN(S(=O)(=O)c3ccc(Br)s3)CC2)c1	14	i	5	-4	-3	33	9	-9

(more compounds)
SMILES	UUG fidelity	Rce1 inhib	MT1-MMP act inh	MT1-MMP act inh RFP	PABP polyA inh	Env fusion inh	CSC inhib	eIF4H FP inh	others
Cc1ccccc1Oc1cc(NC(=O)Cn2cnc([N+](=O)[O-])c2)cc([N+](=O)[O-])c1	/	i	9	-21	12	1	6	0
O=C(O)C1CC=CCC1C(=O)Nc1ccccc1C(=O)N1CCN(c2ccc(Cl)cc2)CC1 (stereo unspecified)	/	i	2	2	1	11	-3	2
Cc1ccc(OC(C)C(=O)Nc2ccc(S(=O)(=O)N3CCOCC3)cc2)cc1 (stereo unspecified)	-5	i	3	-2	-8	-20	-5	7
CC(=O)Nc1ccc(NC(=O)C2CCCN2C(=O)Nc2cccc(F)c2)cc1 (stereo unspecified)	-16	i	2	1	-1	-31	0	-1
COC(=O)c1[nH]c2cc(OC)ccc2c1NC(=O)c1c(F)cccc1F	/	i	-1	-1	-6	1	-4	8
CCOC(=O)N1CCN(C(=O)COc2cccc3c2CCN(Cc2cccc(C)c2)C3=O)CC1	/	i	-3	-8	-20	42	22	-6
OC(CC#CCN1CCOCC1)(c1ccccc1)c1ccccc1	-7	i	-1	2	6	-2	-25	-5
COc1ccc(N(C(=O)c2cnccn2)C(C(=O)NC2CCCCC2)c2ccc(Cl)cc2)cc1 (stereo unspecified)	-12	i	1	5	/	/	/	/
CC(C)(C)C1CCC(OCC(O)CN2CCN(c3ccccn3)CC2)CC1 (stereo unspecified)	/	i	0	-5	-6	23	60	-9
O=C(O)Cn1c(=O)n(Cc2ccccc2)c2ccccc21	-15	i	-2	0	9	-7	-9	1
COc1ccc(C(=O)NCC(=O)OCc2ccc(F)cc2)cc1	/	i	-3	3	32	-20	-4	-4
O=C1c2cccnc2C(Nc2ccc(F)c(Cl)c2)N1Cc1cccs1 (stereo unspecified)	-18	i	3	3	6	-10	9	-7
CC(C)OC(=O)CSc1nnc(COc2ccc([N+](=O)[O-])cc2)n1C	/	i	1	4	-2	3	-7	5
CCCn1c(C(CO)Nc2nc(C)cs2)nc2ccccc21 (stereo unspecified)	-18	i	1	4	13	28	-9	-9
COC(=O)C[C@H]1C[C@@H]2c3cc(NC(=O)Nc4ccccc4)ccc3O[C@@H]2[C@@H](CO)O1	-8&-6	/	4	3	/	18[16.7 µM]	/	/
Nc1nc2ncc(C(=O)c3cc(F)ccc3O)cc2s1	-14	/	2	5	-5	-13	-21	-10
COc1cc(C(=O)N2CCCN(c3nc4cc(C)ccc4cc3C#N)CC2)cc(OC)c1OC	/	i	/	/	22	22	2	12
CC(CC(C)C(=O)Nc1ccccc1C(C)(C)C)C(=O)O (stereo unspecified)	-3	i	2	4	-4	/	-3	5
Cc1ccc(-n2c(N)c(S(=O)(=O)c3ccccc3)c3nc4ccccc4nc32)cc1	/	i	-1	-3	2	17	/	-5
O=C(NC1CC1)c1sc2cc([N+](=O)[O-])ccc2c1Cl	-18	i	0	1	-7	-62	-2	-10
CCc1ccc(C(O)c2ncc(-c3ccccc3F)[nH]2)cc1 (stereo unspecified)	-20	/	6	-2	/	-2	/	/
CCCOc1ccc(C(O)(CCN2CCCCC2)c2ccccc2OC)cc1 (stereo unspecified)	-7	i	-5	-1	10	6	4	2
Cc1ccc(CNC(=O)C2CC(=O)N(CCC(C)C)C2)cc1 (stereo unspecified)	/	i	5	3	-3	-13	-19	9
O=C(c1cnn2ccccc12)N1CCCc2ccccc21	1	i	3	5	-2	-3	-3	8
COC(=O)c1ccc(NC(=S)N2CCN(Cc3ccccc3)CC2)cc1	-13	i	2	1	2	-4	-20	-4
Cc1ccc(Nc2n[nH]c(C)c2[N+](=O)[O-])c(C)c1	-15	i	0	-5	-3	-80	6	-15
CC(=O)Nc1cc(-c2cccc(NS(C)(=O)=O)c2)cn2c(-c3cccc(C(F)(F)F)c3)cnc12	-14	/	-8	0	/	30	/	/
COc1ccccc1NC(=O)C(C)OC(=O)CSCC(=O)Nc1cc(C)on1 (stereo unspecified)	-12	/	0	3	/	/	-3	/
COc1ccc(NC(=O)CSc2nnc(-c3cc(C)[nH]n3)n2N)cc1	-24	i	2	4	1	-10	2	2
O=C(Nc1ccc(CN2CCOCC2)cc1)c1ccco1	-10	i	-1	3	-1	-13	-7	-7
O=C(Nc1ccc(S(=O)(=O)Nc2ccccn2)cc1)C(F)(F)F	5	i	0	4	3	5	-8	-11
COc1ccc(NS(=O)(=O)c2ccc3c(c2)NC(=O)CO3)c(OC)c1	-9	i	0	2	-4	-1	-19	-11
COc1cccc(-c2noc(-c3cccnc3)n2)c1	-28	i	-5	0	-8	-172	-2	-8
COc1cccc(-n2c(=O)n(Cc3ccccc3)c(=O)c3[nH]cnc32)c1C	-15	i	4	3	-4	0	-21	-3
Cc1n[nH]c(=S)n(/N=C/c2cccc([N+](=O)[O-])c2)c1=O	/	i	0	1	20	10	2	-4
O=C(CN1CCCCCC1)NN(Cc1ccccc1)c1ccccc1	/	i	2	4	2	5	-8	9

High-throughput results (PubChem)
